# Mtb bLac sens: beta-lactam sensitization of Mtb H37Rv; 0.27% of 330,000 active; AID 434955; M. tuberculosis H37Rv growth with meropenem, percent inhibition; hits of this screen are not shown here; inhibition, % at 25 µM;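 active = about 74% or more and at least 40 points above the plate without the antibiotic, then above 30% in a dose series; inconclusive = first-round hits that could not be retested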;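 note: growth measured after seven days incubation then overnight dye step; 0% = bacteria only wells and 100% = bacteria with antibiotic; twin plates without the antibiotic show which effects depend on it; some results filed as inactive read as strong as hits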
# Mtb growth: M. tuberculosis H37Rv growth inhibitors, H37Rv strain (AID 1626); M. tuberculosis H37Rv growth inhibition; higher % means a stronger effect; inhibition, % at 10 µM; hits with a dose series show IC50 in µM; 0.95% of 220,000 active;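 active = confirmed in a dose series; inconclusive = inhibition above 80% but not taken into the dose series; inactive = below 80% or under 30% at every dose of the series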;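 note: bacteria incubated seven days before Alamar blue readout; 0% = bacteria only wells and 100% = bacteria with antibiotic wells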
# Arbovirus anti: blocks arbovirus infection; arbovirus infection cell-based antiviral screen; inhibition, % at 10 µM; 0.37% of 200,000 active; AID 1251;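 active = inhibition from about 30%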;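 note: bluetongue infection of BSR cells; cell survival read as ATP light after 72 h; 0% = infected wells without compound and 100% = uninfected wells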
# YopH PTP inh: YopH (Yersinia) phosphatase inhibition; AID 898; fluorescence Ex485/Em525; 0.16% of 140,000 active; inhibition, %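 (about 10 µM by stock and volumes)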;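 active = inhibition of 50% or more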;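 note: controls were vehicle for no effect and minimum signal wells for full effect; inactives centre near -20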
# RecA intein inh: Mtb RecA intein splicing inhibition | inhibition, %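 (about 9 µM by stock and volumes)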 | 0.75% of 290,000 active | P9WHJ3 | AID 2221 | cell-free RecA intein splicing, fluorescence; in the data active = inhibition above about 30%; inconclusive = no clear call, values can overlap the other calls;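 note: 0% = vehicle wells and 100% = reference inhibitor control wells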
# Target sequence (P9WHJ3 whole entry, looked up): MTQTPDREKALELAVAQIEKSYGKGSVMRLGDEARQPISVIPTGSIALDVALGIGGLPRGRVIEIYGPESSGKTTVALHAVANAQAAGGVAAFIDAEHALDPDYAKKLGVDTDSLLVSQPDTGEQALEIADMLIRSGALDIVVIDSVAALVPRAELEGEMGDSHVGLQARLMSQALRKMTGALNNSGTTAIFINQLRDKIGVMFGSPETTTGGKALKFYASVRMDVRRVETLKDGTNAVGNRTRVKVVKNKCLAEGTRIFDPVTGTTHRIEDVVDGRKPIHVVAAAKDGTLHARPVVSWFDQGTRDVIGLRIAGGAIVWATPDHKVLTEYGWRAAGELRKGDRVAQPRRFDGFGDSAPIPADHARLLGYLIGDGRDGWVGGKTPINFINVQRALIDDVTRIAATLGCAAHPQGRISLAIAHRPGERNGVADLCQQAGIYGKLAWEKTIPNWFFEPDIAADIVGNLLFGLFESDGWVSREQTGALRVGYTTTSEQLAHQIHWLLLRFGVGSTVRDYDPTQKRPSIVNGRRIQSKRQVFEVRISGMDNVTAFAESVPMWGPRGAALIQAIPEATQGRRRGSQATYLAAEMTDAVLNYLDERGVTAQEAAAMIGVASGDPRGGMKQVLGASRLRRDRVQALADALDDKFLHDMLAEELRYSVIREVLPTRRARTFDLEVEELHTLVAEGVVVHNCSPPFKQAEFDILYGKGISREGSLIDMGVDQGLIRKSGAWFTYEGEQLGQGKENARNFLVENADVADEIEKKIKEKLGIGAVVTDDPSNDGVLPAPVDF
# Arbovirus anti repeat: further read-out of Arbovirus anti, marked with its call; inhibition, %; measured here: 10K subset replicate screen; many hits read low in the repeat;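 first of two repeat runs on a subset; 0% = infected and 100% = uninfected wells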
# An asterisk follows results filed as active; u = inconclusive; x = no result given; & = joins results of further samples.
SMILES,Mtb bLac sens,Mtb growth,Arbovirus anti,YopH PTP inh,RecA intein inh,others
CCCN(C(=O)Cn1ncc2c([nH]c3ccccc32)c1=O)c1ccccc1C,2,x,x,x,-1.4,
O=C(CNC(=O)c1ccccc1)OC1CCCCC1,4,-1%,1,x,1.0,
CC(=O)c1sc(NC(=O)CCS(=O)(=O)c2ccc(C)cc2)nc1C,75,x,x,x,-0.9,
O=C(CS(=O)c1ccc(F)cc1)Nc1ccccc1Cl (stereo unspecified),0,0%,-1,x,-4.7,
Cc1ccc(S(=O)(=O)N2C(=O)CCC2C(=O)N2CCN(C)CC2)cc1 (stereo unspecified),-26,-7%,9,-17,-1.7,
NC1=NN(c2cccc(C(=O)O)c2)C(=O)C1,4,-2%,-9,-8,84*,
CC1CCN(CC(O)COC2CC(C)CCC2C(C)C)CC1 (stereo unspecified),-10,7%,16,x,-2.6,
O=C(Nc1ccc2c(c1)CCC2)C1CCCO1 (stereo unspecified),27,37%,0,2,1.2,
COc1ccc(/C(C)=N/Nc2nc3ccccc3nc2C)cc1OC,52,2%,x,x,-1.5,
COc1ccc(C)cc1N(CC(=O)NCCSCc1cccc(Cl)c1)S(C)(=O)=O,-6,x,x,x,-1.5,
Cn1nc(-c2ccccc2)c(CSc2cccc(Cl)c2)c1Cl,21,9%,-14,-23,14,
Cc1cc(C(F)(F)F)n(-c2ccc(N)cc2)n1,60,5%,-3,x,-3.8,
Cc1onc(-c2c(Cl)cccc2Cl)c1NC(=O)N1CCSCC1,-1,-10%,x,x,0.0,
O=C1OC(/C(=C\NCc2ccccc2)[N+](=O)[O-])c2ccccc21 (stereo unspecified),-1,5%,7,x,3.5,
COc1cc(S(=O)(=O)N2CCOCC2)ccc1NC(=O)COC(=O)CC12CC3CC(CC(C3)C1)C2,4,-3%,-4,-9,3.1,
COC(=O)CS(=O)(=O)c1ccc(C)cc1,-1,-8%,9,x,1.2,
Cc1cc(C)nc(N/N=C/c2c[nH]c3ccccc23)n1,0,0%,3,x,-5.8,
CC(=O)N1CCC(N(CCN2CCOCC2)C(=S)Nc2c(C)cccc2C)CC1,2,-10%,-1,-11,0.5,
O=C(COc1cccc2c1CCN(Cc1ccccc1F)C2=O)N1CCCCC1,0,2%,-19,x,4.6,
CN(Cc1ccccc1)C(=O)COC(=O)CNS(=O)(=O)c1ccc2ccccc2c1,-4,x,x,x,-1.8,
COc1ccc(-c2cc3c(=O)n(CC(=O)NCCCN4CCC(N5CCCCC5)CC4)ncn3n2)cc1,0,x,x,x,0.5,
CCOc1ccc(CC2C(=O)NC(=O)N(c3ccc(CC)cc3)C2=O)cc1 (stereo unspecified),38,-6%,-4,0,0.2,
Oc1ccc2c(ccc3[nH]cnc32)c1,0,1%,x,x,-5.1,
CCCNC(=O)C1(CC2CC(c3ccccc3)=NO2)CCN(C(=O)c2cc(OCC)c(OCC)c(OCC)c2)CC1 (stereo unspecified),64,9%,x,x,-0.8,
CN(C)c1ncccc1-c1nc2ccccc2s1,-4,8%,-4,x,-9.4,

# Three compounds drawn at random from the list so far, as already listed:
SMILES,Mtb bLac sens,Mtb growth,Arbovirus anti,YopH PTP inh,RecA intein inh,others
O=C(Nc1ccc2c(c1)CCC2)C1CCCO1 (stereo unspecified),27,37%,0,2,1.2,
CCCN(C(=O)Cn1ncc2c([nH]c3ccccc32)c1=O)c1ccccc1C,2,x,x,x,-1.4,
CCOc1ccc(CC2C(=O)NC(=O)N(c3ccc(CC)cc3)C2=O)cc1 (stereo unspecified),38,-6%,-4,0,0.2,

# More compounds
SMILES,Mtb bLac sens,Mtb growth,Arbovirus anti,YopH PTP inh,RecA intein inh,others
COc1ccc(/C=N/OCC(=O)Nc2nc3ccccc3s2)cc1OC,8,-1%,9,12,3.9,
Cc1ccccc1CSc1nnc([C@@H]2CCCN2)o1,-1,-8%,x,x,-1.7,
O=C(NCC(O)c1ccc([N+](=O)[O-])cc1)C1CCCCC1 (stereo unspecified),-2,1%,9,x,6.6,
Cc1c(OC(C)C(=O)NCCCN2CCOCC2)ccc2c3c(c(=O)oc12)CCC3 (stereo unspecified),-13,x,x,x,1.3,
COc1ccc2c(c1OC)CN(C)CCc1cc3c(cc1C(O)C2)OCO3 (stereo unspecified),-3,-7%,4,-24,0.4,
Cc1nonc1NC(=O)CSc1nc(C23CC4CC(CC(C4)C2)C3)nc2ccccc12,-9,-2%,x,x,1.0,
Nc1cccc2c1C(=O)N(c1ccccc1)C2=O,6,-12%,5,x,x,Arbovirus anti repeat=-3
COc1ccccc1C1C2=C(COC2=O)Nc2cc3c(cc21)OCO3 (stereo unspecified),-20,1%,-12,-36,2.8,
CCOc1ccc(N(CC(=O)Nc2ccc(OC)cc2)S(=O)(=O)c2c(C)[nH]c(=O)[nH]c2=O)cc1,-1,-1%,16,x,x,
COC(=O)c1cc(OC)c(OC)cc1NC(=O)C1CCCO1 (stereo unspecified),-4,14%,11,-32,-4.4,Arbovirus anti repeat=-1
O=C(Nc1cccc(F)c1)C1CCN(C(=O)c2ccc(Br)cc2)CC1,1,-4%,-4,-16,1.6,
CS(=O)(=O)c1ccccc1C(=O)Nc1cccc(-c2nc3ccccc3o2)c1,-2,x,x,x,4.7,
COc1ccc(/C(C)=N\Nc2nc(-c3ccc(Cl)cc3)cc(C(F)(F)F)n2)cc1OC,4,7%,-3,-16,0.0,
C=CCNC(=S)Nc1c(C(=O)OC)[nH]c2cc(OC)ccc12,4,-7%,x,x,-5.6,
Cc1cc(C(=O)N/N=C/c2ccc(C)s2)n[nH]1,3,x,x,x,-3.7,
CN(C[C@H](c1ccccc1)N(C[C@H](Cc1ccccc1)N(CCc1ccccc1)N=O)N=O)N=O,-1,2%,-3,x,5.7,
CCOC(=O)C1=C(C)NC(C)=C(C(=O)OC)C1c1cccc([N+](=O)[O-])c1 (stereo unspecified),-4,3%&-3%,-2&-7,-43,3.2,
COc1ccc2nc(NCCCO)[nH]c2c1,1,-12%,3,1,-0.4,
COc1ccc(NC(=S)Nc2cnc3ccccc3c2)c(OC)c1,-10,u,-6,x,-1.5,
Cc1cc(C)n(CCCNC(=O)CCNS(=O)(=O)c2ccccc2C(F)(F)F)n1,1,x,x,x,-3.8,
N#Cc1cccc(C#N)c1Oc1ccc(S(=O)(=O)Nc2ccccc2)cc1,-13,x,x,x,0.1,
N#CCCCSc1nnc(Cc2ccc3c(c2)OCO3)o1,47,6%,-2,34,2.3,
Cc1cc(NC(=O)CSc2nnc3c4c(C)c(C)sc4ncn23)no1,7,3%,0,-43,-1.1,
O=C(NC(=S)N1CCN(c2ccc(F)cc2)CC1)c1cccs1,72,u,1,x,-5.9,
Cc1nn(Cc2ccc(Cl)cc2)c(C)c1NC(=O)C1CC=CCC1C(=O)O (stereo unspecified),-11,4%,8,-26,1.5,
# Continued:
SMILES,Mtb bLac sens,Mtb growth,Arbovirus anti,YopH PTP inh,RecA intein inh,others
O=C(c1cc(-c2ccc(Br)cc2)on1)N1CCOCC1,4,x,x,x,-2.6,
Cc1ccc2[nH]c(C)c(CCNC(=O)NC3CCCCC3)c2c1,0,5%,1,x,-5.0,
O=C(NCc1cccnc1)C1c2ccccc2C(=O)N1C1CCCCCCC1 (stereo unspecified),-2,4%,4,-37,0.6,
Cc1cc(C(=O)O)c(CSc2ncn[nH]2)o1,-2,-7%,-8,-20,-1.4,
Cc1cc(C)nc(SCNC(=O)c2ccccc2)n1,-13,-10%,-2,-78,0.5,
COc1ccc(C(=O)N(Cc2ccco2)C(C(=O)NC2CCCC2)c2ccc(O)cc2)cc1OC (stereo unspecified),-4,-4%,-8,17,-2.0,
COc1ccc(CN(CCCN2CCOCC2)C(=O)Nc2cccc(Cl)c2)cc1OC,-6,0%,21,-37,1.5,
O=C(Nc1ccc(NC(=O)C23CC4CC(CC(C4)C2)C3)cn1)c1ccco1,4,2%,3,-41,2.7,
O=CN1Cc2[nH]c3ccccc3c2N(c2ccc(Cl)cc2)C1=O,4,-8%,5,-26,7.3,
CCc1nccn1S(=O)(=O)c1cc(Br)ccc1OC,-2,-13%,3,-16,0.7,
NC(=O)C1CCN(Cc2ccc(OCc3ccccc3)cc2)CC1,3,x,x,x,1.5,
c1ccc(COc2ccc(OCCCNC3CCCC3)cc2)cc1,4,2%,-49,15,-0.3,
COc1ccc(-n2nc(C(=O)Nc3nc4ccc(OC)cc4s3)c3ccccc3c2=O)cc1,8,5%,-11,-24,-3.6,
COc1ccc(-c2cc(=O)oc3cc(OCC(=O)Nc4ccc(CCO)cc4)ccc23)cc1,5,x,x,x,0.2,
O=C(Cn1nc(Cc2cccnc2)c2ccccc2c1=O)Nc1ccccc1F,-8,6%,x,x,-1.7,
N#CC1=C(N)C(C#N)(C#N)C2(C(=O)Nc3ccccc32)C2CCCC=C12 (stereo unspecified),6,-3%,-11,5,14,Arbovirus anti repeat=-5
O=C(NC1(C(F)(F)F)C(=O)Nc2c1c(=O)[nH]c(=O)n2Cc1ccccc1)c1ccc(Cl)cc1Cl (stereo unspecified),u,-7%,3,1,-0.7,
CC[C@@]12C(=O)N(c3cccc(F)c3)C(=O)N1[C@H](c1ccc(Br)cc1)[C@@H]1C(=O)N(C(C)(C)C)C(=O)[C@@H]12,8,x,x,x,3.4,
CCOC(=O)c1sc(/N=C/N(C)C)nc1C,2,-4%,-3,-28,0.0,
O=C1C=C2C=C[C@H]3C[C@]2(O1)[C@@H]1CCCCN13,-1,-6%,-13,-34,-1.0,
CCOC(=O)CC1C(=O)NCCN1S(=O)(=O)c1ccc(Br)cc1 (stereo unspecified),-9,-3%,-1,x,-2.2,
C=CCn1c(O)c(C(C)=Nc2cccc(C(=O)O)c2)c(=O)[nH]c1=O,10,-12%,x,x,1.0,
CCOC(=O)c1sc(NC(=O)COC(=O)c2ccco2)nc1C,-2,-10%,8,-8,-4.2,Arbovirus anti repeat=4
CCOc1ccc(NC(=O)NNC(=O)c2cccnc2)cc1,-2,x,x,x,2.0,
O=P(C1=C(N2CCOCC2)/C(=C\c2ccccc2)CC1)(N1CCOCC1)N1CCOCC1,0,0%,8,-42,3.4,
# Next section
SMILES,Mtb bLac sens,Mtb growth,Arbovirus anti,YopH PTP inh,RecA intein inh,others
Cc1onc(-c2c(Cl)cccc2Cl)c1-c1nnc(-c2ccc(Cl)cc2)o1,-3,-3%,x,x,4.6,
CSc1ncccc1C(=O)OCc1ccccc1F,-8,-5%,-6,-28,2.4,
Cc1[nH]nc(-c2ccc(O)cc2O)c1Oc1ccccc1,4,-7%,-9,-23,0.1,
Cc1cccc(NC(=O)Cn2cnc3c(oc4ccccc43)c2=O)c1C,89,1%,-7,x,-4.2,
Brc1ccc(OCc2nc(-c3ccccn3)n[nH]2)cc1,-11,91%,-26,-9,-3.0,
CN(CCOCCOc1ccc(Cl)cc1Br)Cc1ccccc1,1,10%,-15,x,-1.1,
Cc1noc(C)c1C(c1ccccc1)S(=O)(=O)c1ccccc1 (stereo unspecified),-4,-6%,6,-3,1.5,
O=c1[nH]cnc2c1oc1ccccc12,0,-6%,-7,0,x,
COC(=O)c1ccc(NC(=O)CN2CCN(S(=O)(=O)c3cc(Cl)ccc3OC)CC2)cc1,-1,1%,-18,-15,2.3,
N/C(Cc1cccc2ccccc12)=N\OC(=O)COc1ccccc1,-4,-2%,-8,-29,23,
COc1ccc(NC(=O)N2CCCCCC2)cc1,-10,-1%,0,x,9.2,
C=CS(=O)(=O)c1sc(Cl)c(N2CCOCC2)c1[N+](=O)[O-],x,-8%,-2,x,6.6,
Cc1ccnc(NC(=O)c2ccccc2NC(=O)C(C)(C)C)c1,-2,-2%,-18,-3,-1.4,
CC12CC[C@H]3[C@@H](CCC4(O)C[C@H](O)CCC34/C=N/NC(=O)c3ccccc3Cl)C1(O)CCC2C1=CC(=O)OC1 (stereo partly specified),-8,-6%,x,x,-1.0,
Cc1sc2nc(C3CC3)nc(N3CCN(S(=O)(=O)c4ccc(F)cc4)CC3)c2c1C,-7,7%,-4,-16,1.4,
CCN(CC)c1ccc(N=Cc2c(O)n(-c3ccccc3C)c(=O)[nH]c2=O)cc1,4,-5%,-1,-28,-5.2,
Cn1c(=O)c2c(nc(N3CCOCC3)n2C)n(C)c1=O,-14,-3%,-5,-53,-0.7,

# Filtered by structure: the compounds so far with two or more sulfur atoms.
SMILES,Mtb bLac sens,Mtb growth,Arbovirus anti,YopH PTP inh,RecA intein inh,others
CC(=O)c1sc(NC(=O)CCS(=O)(=O)c2ccc(C)cc2)nc1C,75,x,x,x,-0.9,
COc1ccc(C)cc1N(CC(=O)NCCSCc1cccc(Cl)c1)S(C)(=O)=O,-6,x,x,x,-1.5,
Cc1cc(NC(=O)CSc2nnc3c4c(C)c(C)sc4ncn23)no1,7,3%,0,-43,-1.1,
O=C(NC(=S)N1CCN(c2ccc(F)cc2)CC1)c1cccs1,72,u,1,x,-5.9,
C=CS(=O)(=O)c1sc(Cl)c(N2CCOCC2)c1[N+](=O)[O-],x,-8%,-2,x,6.6,
Cc1sc2nc(C3CC3)nc(N3CCN(S(=O)(=O)c4ccc(F)cc4)CC3)c2c1C,-7,7%,-4,-16,1.4,

# A portion of the library. The share of hits here may be higher or lower than overall.
